Cruzain noTriton: cruzain (T. cruzi) inhibition without detergent | P25779 | purified cruzain, Z-FR-AMC fluorescence, no detergent | Potency, µM, inactives show max response, negative = inhibition, usual class: inhibitors | actives 2.3% (n = 200,000) | AID 1476; active means well fitted curve in the direction sought with a large enough effect; inconclusive means small, poorly fitted or top-dose-only effect, or another doubt; inactive means no such curve, though single readings can be large; an effect the other way counts as inactive or inconclusive;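 further: plate controls were enzyme without inhibitor for no effect and buffer without enzyme for full effect; nearly all actives have a fitted effect of over 40% in size; top concentration of the series not given in the record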
Target sequence (P25779 123-467 limits assumed): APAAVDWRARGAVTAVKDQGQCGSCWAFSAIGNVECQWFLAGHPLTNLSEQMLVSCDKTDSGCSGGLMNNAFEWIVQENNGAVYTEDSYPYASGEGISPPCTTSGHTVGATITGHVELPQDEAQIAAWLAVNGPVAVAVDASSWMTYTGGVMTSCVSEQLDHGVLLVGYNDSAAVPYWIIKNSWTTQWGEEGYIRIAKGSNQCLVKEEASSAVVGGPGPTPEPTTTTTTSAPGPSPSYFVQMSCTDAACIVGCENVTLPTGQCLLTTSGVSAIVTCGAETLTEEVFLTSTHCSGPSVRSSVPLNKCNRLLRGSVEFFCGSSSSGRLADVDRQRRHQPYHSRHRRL
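Detergent-free condition (0.00005% Triton X-100) in acetate buffer pH 5.5 with DTT. 1.5 nM enzyme and compound were pre-mixed 15 min, then 2 uM Z-FR-AMC substrate added; reaction progress from fluorescence change between first and third reads (60 s).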
NS1 function inh: inhibitors of influenza NS1 protein function; S. cerevisiae slowed by influenza A NS1, growth recovery by OD600; Potency, µM (series often up to 46.1 µM), for the others: at the top dose activity, positive = more growth; actives 0.4% (n = 270,000); further: actives are rising curves; nearly all actives have a fitted effect of over 50% in size
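Growth recovery, yeast-based: influenza A NS1 expressed in S. cerevisiae causes slow growth, and suppressors are detected by OD600. The parent strain without NS1 is used as positive control.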
SARS PLP yeast: blocks SARS-CoV papain-like protease in a yeast assay; S. cerevisiae expressing SARS-CoV PLpro, growth rescue; control for the full effect not named in the record; actives 0.19% (n = 330,000); Potency, µM (titrated, usually from 32.9 µM), for inactives: at the highest dose activity, positive = growth rescue; further: 0% is about no effect; nearly all actives have a fitted effect of over 55% in size; growth read by luminescence after 48 h
StopGo reporter: lowers the luciferase signal of an FMDV 2A StopGo reporter | human cells with a luciferase reporter of 2A StopGo recoding; control for the full effect not named in the record | Potency, µM (doses to about 57.9 µM), for inactives: at the top dose signal change, negative = less light | actives 1.2% (n = 410,000) | AID 1159524; active = well fitted falling curve with a large enough effect; inconclusive = small, poorly fitted or top-dose-only effect; inactive = no such curve, though single readings can be large or run the other way; tested in HEK293T cells; further: on the % scale 0 is the no-effect control and ±100 the full control effect; nearly all actives have a fitted effect of over 45% in size; luciferase light after 4 h
LASV entry inh: inhibitors of Lassa virus binding or cell entry; Lassa virus pseudotype entry inhibition, cell reporter; control for the full effect not named in the record; Potency, µM (titrated, usually from 37.9 µM), without a hit: top-dose activity change, negative = inhibition, actives largely listed as inhibitors; actives 1.2% (n = 300,000); active means well fitted inhibition curve with a large enough effect; inconclusive means small, poorly fitted or top-dose-only effect, or effect the other way; inactive means flat fitted curve, though single readings scatter; tested in HEK293 cells; further: on the % scale 0 is the no-effect control and ±100 the full control effect; nearly all actives have a fitted effect of over 50% in size; luciferase read-out
Cruzain Triton: blocks cruzain activity in presence of Triton detergent. P25779. purified cruzain, Z-FR-AMC fluorescence, 0.01% Triton. Potency, µM, for the others: max response, negative = inhibition, actives largely listed as inhibitors. actives 0.43% (n = 200,000); active means well fitted curve in the direction sought with a large enough effect; inconclusive means small, poorly fitted or top-dose-only effect, or another doubt; inactive means no such curve, though single readings can be large; an effect the other way counts as inactive or inconclusive;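 further: plate controls were neutral wells for no effect and buffer without enzyme for full effect; nearly all actives have a fitted effect of over 40% in size; top concentration of the series not given in the record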
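15 min RT preincubation of 1.5 nM cruzain with compound, then 2 uM Z-FR-AMC added; kinetic AMC fluorescence, 60 s delta. Triton X-100 0.01%, pH 5.5.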
RE007 growth inh: less growth of the S. pombe RE007 Vpr strain; S. pombe RE007 Vpr strain, BacTiter-Glo ATP luminescence, 24 h; control for the full effect not named in the record; Potency, µM (doses to about 92.2 µM), without a hit: top-dose activity change, negative = less growth; actives 0.21% (n = 360,000); AID 651644; active = well fitted falling curve with a large enough effect; inconclusive = small, poorly fitted or top-dose-only effect; inactive = no such curve, though single readings can be large or run the other way;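 further: on the % scale 0 is the no-effect control and ±100 the full control effect; nearly all actives have a fitted effect of over 50% in size; the assay follows cell death caused by Vpr and the record does not say whether a fall means rescue or toxicity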
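Fission yeast RE007 carrying one integrated HIV-1 vpr copy, seeded at OD 0.01 in PMG+AL medium with 23 nL pinned compound. Grown 24 h at 30 degrees; viability read by BacTiter-Glo luminescence after 5 min.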
MARV entry inh: blocks Marburg virus binding to or entry into cells; Marburg virus pseudotyped entry inhibition, cell reporter; control for the full effect not named in the record; about a third of the inactives were read at about 46 µM; Potency, µM (titrated, usually from 37.8 µM), without a hit: top-dose activity change, negative = inhibition, hits mostly inhibitors; actives 1.8% (n = 300,000); active = well fitted inhibition curve with a large enough effect; inconclusive = small, poorly fitted or top-dose-only effect, or effect the other way; inactive = flat fitted curve, though single readings scatter; tested in HEK293 cells; about a fifth of its hits are not listed in these tables; further: on the % scale 0 is the no-effect control and ±100 the full control effect; luciferase read-out
Active calls of the source: *; ? = inconclusive; nt = not tested or not shown; & = joins results of further samples; [ ] = dose if it differs, or a comment. Unless noted, the call rests on the fitted dose curve; in most records, active means well fitted rising curve with a large enough effect; inconclusive means small, poorly fitted or top-dose-only effect; inactive means no such curve, though single readings can be large or run the other way. Potency means the concentration at half of the fitted maximal effect.

compound	Cruzain noTriton	NS1 function inh	SARS PLP yeast	StopGo reporter	LASV entry inh	Cruzain Triton	RE007 growth inh	MARV entry inh
COc1ccccc1NS(=O)(=O)c1ccc(C)c(C(=O)NCC(c2ccco2)N(C)C)c1 (stereo not given)	nt	nt	-1%	-14%	-1%	nt	1%	7%
Cc1nc2sccn2c(=O)c1S(=O)(=O)Nc1cc(C(F)(F)F)ccc1Cl	-3%	nt	nt	24%	8%[46.1 µM]	-5.2%	nt	nt
S=C(S)OC1CC2CC1C1CCCC21 (stereo not given)	-4%	-6%	nt	0%	-9%	-4.5%	-7%	?
Cc1c(CCOC(=O)C23CC4CC(CC(C)(C4)C2)C3)sc[n+]1CC(=O)c1ccccc1	nt	9%	0%	?	nt	nt	9%	nt
Brc1ccc2c(c1)C(c1ccc(N3CCOCC3)cc1)=NNC(c1cccs1)=N2	-23%	21%	-19%	37%[activator]	-11%	-5.3%	-7%	-13%
COc1ccc(CC(=O)NCc2nc3cccnc3n2Cc2ccc(C)cc2)cc1	-14%	nt	nt	0%	4%[46.1 µM]	-0.4%	nt	nt
COc1ccc(NC(=O)c2cccc(S(=O)(=O)N3CCCCC3)c2)c(OC)c1	nt	-1%	-5%	-7%	0%[46.1 µM]	nt	-9%	-27%[46.1 µM]
C/C(=C\C(=O)c1cccnc1)Nc1ccc(C(=O)O)cc1	-7%	2%	3%	-7%	1%	-0.1%	5%[3.69 µM]	7%
CC(NC(=O)/C(C#N)=C/c1cn[nH]c1-c1ccccc1)c1ccccc1 (stereo not given)	-4%	-7%	0%	-16%	11µM*	1.4%	0%	?
COc1cc(Cl)c(C)cc1NC(=O)C1CCCN(c2ncnc3onc(-c4ccc(F)cc4)c23)C1 (stereo not given)	12%	nt	nt	-14%	-9%[46.1 µM]	-4.9%	nt	nt
CCCCOC(=O)c1nnc(-c2ccc(Cl)cc2)o1	nt	-1%	-2%	-9%	-5%[46.1 µM]	nt	-7%	10%[46.1 µM]
O=C(Nc1ccc(N2CCCC2=O)cc1)c1cccc(F)c1	-4%	6%	5%	nt	-8%	-2.5%	-8%	?
O=C(NC1CCCCC1)c1cc(-c2ccccc2O)on1	nt	0%	-7%	47%[activator]	?	nt	9%	-21%[46.1 µM]
CNC(=O)[C@@]1(Cc2ccccc2)C=C[C@@H](C)N1C(C)=O	-1%	nt	nt	-7%	nt	2.1%	1%	nt
CCOc1cc(NC(=O)C2CC2)c(OCC)cc1NC(=O)c1cccnc1	4%	-8%	-9%	nt	nt	1.1%	nt	-2%
CCCn1nnnc1NCc1ccccc1Cl	nt	14%	-3%	0%	nt	nt	-9%	nt
O=C(c1cccc2ccccc12)C1CCCN(C2CCC2)C1 (stereo not given)	nt	-1%	-2%	-4%	?	nt	-18%	?
O=C(COc1ccccc1Cl)NCCC1=CCCCC1	18%	-2%	-4%	10%	2%	-4.7%	nt	-3%
CC1CCc2c(sc3ncn(CC(=O)N4CCCCC4)c(=O)c23)C1 (stereo not given)	nt	-2%	0%	7%	nt	nt	-14%	nt
Cc1c(CC(=O)NCC(=O)NCC(=O)O)c(=O)oc2cc3c(cc12)CCC(C)(C)O3	nt	1%	0%	-11%	nt	nt	9%	nt
CCN=C1S/C(=C/c2ccc(-c3ccc(Cl)cc3C(=O)O)o2)C(=O)N1CC	nt	5%	0%	-11%	14%[46.1 µM]	nt	9%	2%[46.1 µM]
COc1ccccc1C(=O)NCCC(=O)Nc1ccncc1	nt	nt	-6%	0%	-14%	nt	-1%	3%
Cc1cc2oc(=O)cc(CN3CCc4ccccc43)c2cc1Cl	?	-4%	-12%	-28%	-1%	-3.8%	2%	-13%
CCCCN(C)C(=O)C1CCCN(c2ncnc3onc(C)c23)C1 (stereo not given)	5%	nt	nt	?	0%[46.1 µM]	-1.7%	nt	nt
COc1cc(C(=O)N/N=C(\C)c2ccc(NC(=O)Cc3ccccc3)cc2)ccc1O	nt	4%	8%	16%	nt	nt	21%	nt

More compounds
compound	Cruzain noTriton	NS1 function inh	SARS PLP yeast	StopGo reporter	LASV entry inh	Cruzain Triton	RE007 growth inh	MARV entry inh
COC(=O)c1ccc(C(=O)OC)c(NC(=S)N2CCC(C)CC2)c1	5%	-1%	4%	65%[activator]	0%	-3.0%	-19%	0%
CCOc1ccccc1NC(=O)C1CCN(S(=O)(=O)c2ccc3c(c2)CCCN3C(C)=O)CC1	?	nt	nt	-11%	-7%[46.1 µM]	-0.3%	nt	nt
Cc1cc(C)c(C#N)c(SCC(=O)Nc2ccccc2C(N)=O)n1	8%	6%	-4%	12%	?	1.3%	-7%	-39%
O=C(NCc1cccs1)C1CCCN(S(=O)(=O)c2cnc[nH]2)C1 (stereo not given)	-2%	1%	-1%	-15%	nt	4.8%	-4%	nt
S=C1NC[C@H](Cc2cccc3ccccc23)N1CC1CCCCC1	nt	-4%	-1%	0%	nt	nt	13%	nt
Cn1cc(C(=O)N2CCN(c3cccc(C(F)(F)F)c3)CC2)c2c3ccccc3n(C)c2c1=O	?	nt	nt	0%	?	-18%	nt	?
CCOC(=O)C1C(=O)Nc2nc(C)nn2C1c1ccccc1 (stereo not given)	4%	8%	-1%	-20%	4%	5.0%	-10%	3%
N#C/C(=C\c1ccco1)C(=O)Nc1ccc(S(N)(=O)=O)cc1	nt	-3%	-5%	-8%	nt	nt	4%	nt
COc1ccc(/C=N/NC(=O)C2C3CCCCC32C)cc1OC (stereo not given)	nt	1%	0%	-20%	-10%[46.1 µM]	nt	-1%	1%[46.1 µM]
Cc1ccc(NC(=O)N2CCN(C)CC2)cc1NC(=O)N1CCN(C)CC1	nt	-3%	-1%	4%	-17%	nt	-6%	9%[46.1 µM]
Cc1ccc(S(=O)(=O)N/N=C2/CC(c3ccccc3)Oc3ccccc32)cc1[N+](=O)[O-] (stereo not given)	?	12%	-3%	4%	13%	-8.6%	?	8%
Nc1ccc(N=Nc2ccccc2)c2ccccc12	nt	?	-2%	5%	-1%[46.1 µM]	nt	3%	-8%[46.1 µM]
CC(OC(=O)c1cccc(-n2cnnn2)c1)C(=O)c1ccccc1 (stereo not given)	nt	nt	?	-12%	3%	nt	5%	21%[46.1 µM]
O=C1C(C2=NC(C(=O)O)C3C(=O)N(c4ccc(Cl)cc4)C(=O)C23)=C(O)c2ccccc21 (stereo not given)	-8%	2%	-7%	-10%	-16%	-1.7%	-2%	4%
C(=N/N1CCN(c2ccccc2)CC1)/c1ccncc1	nt	-2%	-2%	-25%	?	nt	-5%	-17%
CSCCC(NC(=O)COc1ccccc1)C(=O)N(C)CC(=O)Nc1ccc(C)cc1 (stereo not given)	nt	nt	2%	45%[activator]	-16%	nt	3%	-5%
COCCn1nnnc1CN(Cc1cc2cc(OC)c(OC)cc2[nH]c1=O)C1CCCC1	1%	-11%	1%	-10%	-9%	-15%	-6%	3%
Clc1ccc(C2N3CCCN23)c(Cl)c1 (stereo not given)	-5%	-3%	-3%	-3%	-4%	-2.0%	-8%	0%
Cc1cccc(CC(=O)Nc2cc(=O)n(C)c(=O)n2C)c1	5%	?	0%	-16%	nt	-5.1%	-2%	-6%
CC(C)(C)NC(=O)C12CCC(C)(c3nc4ccccc4nc31)C2(C)C (stereo not given)	16%	?	-8%	-28%	-10%	-5.2%	-14%	?
Cc1ccc(OCC(=O)N/N=C\c2ccc(O)c([N+](=O)[O-])c2)c([N+](=O)[O-])c1	nt	nt	1%	-18%	-20%	nt	-2%	17%[46.1 µM]
Cc1cccc(C(C)C)c1NC(=O)COC(=O)C1CC(=O)N(Cc2ccccc2)C1 (stereo not given)	nt	nt	1%	-12%	-5%	nt	-18%	28%
NC(=O)CSc1nc2cc(S(=O)(=O)N3CCOCC3)ccc2o1	nt	nt	-2%	-6%	?	nt	17%	-12%[46.1 µM]
C[N+]1(C)CC[C@H](OC(=O)[C@@](O)(c2ccccc2)C2CCCC2)C1	nt	8%	8%	-9%	nt	nt	6%[18.4 µM]	nt
O=C(Nc1ccccc1N1CCCC1)c1ccc([N+](=O)[O-])o1	nt	-14%	-6%	0%	nt	nt	-23%	nt

(cont.)
compound	Cruzain noTriton	NS1 function inh	SARS PLP yeast	StopGo reporter	LASV entry inh	Cruzain Triton	RE007 growth inh	MARV entry inh
Cc1ccc(Oc2ccccc2NC(=O)CSCC(=O)Nc2cc(C)on2)cc1	nt	nt	1%	?	?	nt	18%	13µM*
COc1ccc(C(C#N)N2N=C(C)CC2(C)C)cc1 (stereo not given)	-9%	-3%	1%	6%	22%	3.8%	0%	3%&3%
COc1ccc(C2CC(C(F)(F)F)n3nc(C(=O)NCCN4CCOCC4)cc3N2)cc1 (stereo not given)	-1%	-5%	1%	1%	11%	2.3%	8%	-7%&-7%
COc1cc(-c2[nH]ncc2CN2CCCC2c2nonc2C)cc(OC)c1OC (stereo not given)	nt	3%	0%	2%	nt	nt	3%	nt
N/C(CN1CCCCC1)=N\S(=O)(=O)c1cc(Cl)cc(Cl)c1	nt	5%	0%	64%[activator]	nt	nt	-6%	nt
CCNc1oc(COc2cccc(C)c2)nc1C#N	4%	-11%	-4%	64%[activator]	12%	3.3%	2%	?
CC(C)(C)c1ccc(C(=O)Nc2cccc3c(=O)[nH][nH]c(=O)c23)cc1	-18%	13%	12%	4.5µM*	7.1µM*	-7.7%	32%	?
CCCOc1ccc(/C=N/NC(=O)C(C)Sc2ccccn2)cc1OCC (stereo not given)	15%	-1%	-8%	-28%	?	-6.7%	-9%	?
CCc1noc(C)c1C(=O)N1CCOCC1	-4%	-1%	-3%	11%	1%	2.4%	11%	?
COc1ccccc1N1CCN(C(C)C(=O)N2CC(C)OC(C)C2)CC1 (stereo not given)	nt	nt	2%	-10%	-1%	nt	10%	-9%[46.1 µM]
c1coc(CNc2nc(-c3ccncc3)cs2)c1	-5%	-9%	-20%	33%[activator]	11%	-5.3%	-12%	-19%
CCn1c(NC(=O)c2cccs2)c(-c2cccs2)c(=O)c2ccccc21	-7%	7%	3%	-24%	4%	-2.6%	8%	-14%

Bioassay records as filed in PubChem.
